Compound activity: PubChem BioAssay, Broad Institute
NOMO-1 viab – STK33 inhibitor candidate reducing NOMO-1 cell viability; NOMO-1 AML viability, CellTiter-Glo luminescence, 72 h; inhibition, % (no concentration beside the values); 37,000 tested, 7.5% active;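 active = most replicates above 80%; inconclusive = exactly half above 80%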;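 also: wells of about 30 µL received 25 nL stock; 0% = median of vehicle wells and 100% = reference inhibitor level; the first replicate is given; inactives centre near 10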
An asterisk follows results filed as active; ? = inconclusive. Only part of the results is shown. The share of hits here may be higher or lower than overall.

Sample of the layout, 11 compounds:
SMILES | NOMO-1 viab
COc1cc2c(cc1OC)C(CC#N)=NCC2 | -4
C=C1C(=O)OC2/C=C(\C)CC/C=C(\C(=O)O)CC/C=C(\C)CCC12 (configuration not stated) | 41
C[C@@H]1CN([C@H](C)CO)C(=O)c2cccc(NS(=O)(=O)c3ccc(F)cc3)c2O[C@H]1CN(C)C | 1
C[C@@H]1CN([C@H](C)CO)C(=O)Cc2cc(NS(=O)(=O)c3cccs3)ccc2O[C@H]1CN(C)Cc1ccc(C(F)(F)F)cc1 | 62
COc1ccc(S(=O)(=O)N(C)C[C@@H]2Oc3ccc(NS(=O)(=O)c4c(C)noc4C)cc3C(=O)N([C@H](C)CO)C[C@H]2C)cc1 | 12
Cc1sc2ncnc(SCC(=O)Nc3ccccc3[N+](=O)[O-])c2c1C | 5
C[C@@H]1CN([C@@H](C)CO)C(=O)c2cccc(NC(=O)c3nc4ccccc4s3)c2O[C@@H]1CN(C)Cc1ccc(-c2ccccc2)cc1 | 28
C[C@@H]1CN([C@@H](C)CO)C(=O)c2cc(NC(=O)NC3CCCCC3)ccc2O[C@@H]1CN(C)Cc1ccc2c(c1)OCO2 | 4
C[C@H]1CN([C@@H](C)CO)C(=O)c2cccc(NC(=O)c3ccncc3)c2O[C@H]1CN(C)Cc1ccc(Oc2ccccc2)cc1 | 9
O=C(Nc1ccccc1)C1CCCCC1 | 6
CCn1c(SCC(=O)Nc2ccc(I)cc2C)nnc1-c1ccccc1 | -7

Main list, from the first entry:
SMILES | NOMO-1 viab
COc1cc2c(cc1OC)C(CC#N)=NCC2 | -4
C=C1C(=O)OC2/C=C(\C)CC/C=C(\C(=O)O)CC/C=C(\C)CCC12 (configuration not stated) | 41
C[C@@H]1CN([C@H](C)CO)C(=O)c2cccc(NS(=O)(=O)c3ccc(F)cc3)c2O[C@H]1CN(C)C | 1
C[C@@H]1CN([C@H](C)CO)C(=O)Cc2cc(NS(=O)(=O)c3cccs3)ccc2O[C@H]1CN(C)Cc1ccc(C(F)(F)F)cc1 | 62
COc1ccc(S(=O)(=O)N(C)C[C@@H]2Oc3ccc(NS(=O)(=O)c4c(C)noc4C)cc3C(=O)N([C@H](C)CO)C[C@H]2C)cc1 | 12
Cc1sc2ncnc(SCC(=O)Nc3ccccc3[N+](=O)[O-])c2c1C | 5
C[C@@H]1CN([C@@H](C)CO)C(=O)c2cccc(NC(=O)c3nc4ccccc4s3)c2O[C@@H]1CN(C)Cc1ccc(-c2ccccc2)cc1 | 28
C[C@@H]1CN([C@@H](C)CO)C(=O)c2cc(NC(=O)NC3CCCCC3)ccc2O[C@@H]1CN(C)Cc1ccc2c(c1)OCO2 | 4
C[C@H]1CN([C@@H](C)CO)C(=O)c2cccc(NC(=O)c3ccncc3)c2O[C@H]1CN(C)Cc1ccc(Oc2ccccc2)cc1 | 9
O=C(Nc1ccccc1)C1CCCCC1 | 6
CCn1c(SCC(=O)Nc2ccc(I)cc2C)nnc1-c1ccccc1 | -7
C[C@H](CO)N1C[C@H](C)[C@H](CN(C)S(=O)(=O)c2ccc(Cl)cc2)Oc2ccc(NS(=O)(=O)c3ccccc3)cc2C1=O | 17
CCn1c(SCC(=O)Nc2cccc(C(=O)O)c2)nnc1-c1ccc(Cl)cc1Cl | 31
Cc1ccccc1NC(=O)CSC1CC(=O)N(c2ccc(F)cc2)C1=O (configuration not stated) | -11
COc1ccc(CN(C)C[C@H]2Oc3ccc(NC(=O)Nc4ccc(OC)cc4)cc3CC(=O)N([C@@H](C)CO)C[C@H]2C)cc1 | 1
COc1ccccc1NC(=O)CC1C(=O)NCCN1C(=O)Nc1ccc(Cl)c(Cl)c1 (configuration not stated) | 2
COc1ccc(NC(=O)CSc2nnc(-c3ccncc3)n2-c2ccc(Cl)cc2)cc1 | 9
COc1ccc(S(=O)(=O)N(C)C[C@H]2Oc3c(NC(=O)c4cnccn4)cccc3C(=O)N([C@H](C)CO)C[C@@H]2C)cc1 | 14
CN(C)c1ccc(NC(=O)CSc2nc3c(c(C(F)(F)F)c2C#N)CCCCCC3)cc1 | 18
C[C@@H]1CN([C@H](C)CO)C(=O)c2cccc(NS(=O)(=O)c3cn(C)cn3)c2O[C@H]1CN(C)C(=O)Nc1cccc2ccccc12 | 17
C[C@@H]1CC[C@@]2(C)C(C(=O)O)=CCC[C@@H]2[C@@]1(C)CCc1ccoc1 | 22
C[C@H](CO)N1C[C@H](C)[C@H](CN(C)S(C)(=O)=O)Oc2ccc(NS(=O)(=O)c3cccs3)cc2C1=O | 3
C[C@H]1CN([C@@H](C)CO)C(=O)Cc2cc(NC(=O)Cc3cn(C)c4ccccc34)ccc2O[C@H]1CN(C)C | 16
C[C@@H]1CCCCO[C@H](CN(C)C(=O)C2CCCCC2)[C@@H](C)CN([C@H](C)CO)C(=O)c2cc(N(C)C)ccc2O1 | 25
CCC(=O)[C@@]1(C)[C@H](C)C[C@H]2[C@@H]3CCC4=CC(=O)C=C[C@]4(C)[C@H]3[C@@H](O)C[C@@]21C | 10
O=C(Oc1ccc2ccccc2c1)c1ccccc1S(=O)(=O)c1ccccc1[N+](=O)[O-] | 34
Cc1cc(Oc2coc3cc(OCC(=O)Nc4ccccc4F)ccc3c2=O)cc(C)c1Cl | 44
COc1ccc(S(=O)(=O)Nc2cccc3c2O[C@H](CN(C)Cc2ccc(C(=O)Nc4ccccc4N)cc2)[C@H](C)CN([C@@H](C)CO)C3=O)cc1 | 127*
Cc1noc(C)c1NC(=O)Nc1ccc2c(c1)C(=O)N([C@H](C)CO)C[C@H](C)[C@@H](CN(C)C)OCCCC[C@@H](C)O2 | -1
C[C@@H]1CCCCO[C@@H](CN(C)C(=O)Cc2ccccc2)[C@@H](C)CN([C@H](C)CO)C(=O)c2cc(NC(=O)CCCCCC(=O)Nc3ccccc3N)ccc2O1 | 20
Cc1ccc(S(=O)(=O)N(CC(=O)O)c2ccc(C)c(C)c2)cc1 | 15
C[C@@H]1CN([C@H](C)CO)C(=O)c2cc(NC(=O)NC3CCCCC3)ccc2O[C@@H]1CN(C)Cc1ccncc1 | 11
COc1cc2cc(C)nc(Cc3cccc4ccccc34)c2cc1OC | 86*
C[C@@H]1CN([C@H](C)CO)C(=O)c2cc(NC(=O)CCN3CCOCC3)ccc2O[C@@H]1CN(C)C(=O)Nc1ccc(C(F)(F)F)cc1 | 6
C[C@H]1CN([C@@H](C)CO)C(=O)c2cc(N(C)C)ccc2O[C@H]1CN(C)C(=O)Nc1ccc(F)cc1 | 15
COc1cc(=O)n(C)c2c(OCC(O)C(C)(C)O)cccc12 (configuration not stated) | -7
COc1ccc(N(C(C)=O)S(=O)(=O)c2cc(OC)ccc2OC)cc1 | 26
C=C1C(=O)O[C@H]2C1[C@H](OC(=O)/C(=C/CO)COC(=O)/C(C)=C/CO)CC(=C)[C@@H]1CC(=O)[C@@H](C)[C@@H]12 (some centres not stated) | 108*
O=c1[nH][nH]c(=O)n1CCCc1cc2cccc3ccc4cccc1c4c32 | 7
COc1ccc(NC(=O)Nc2cccc3c2O[C@H](CN(C)C(=O)Nc2ccccc2)[C@@H](C)CN([C@@H](C)CO)C3=O)cc1 | -6
Cc1ccc(-c2nnc3c4ccccc4c(C)nn23)cc1S(=O)(=O)NCc1cccnc1 | 53
C[C@@H]1CN([C@@H](C)CO)C(=O)c2cccc(NS(=O)(=O)c3cn(C)cn3)c2O[C@H]1CN(C)C(=O)Nc1cccc2ccccc12 | 26
C[C@H](CO)N1C[C@H](C)[C@@H](CN(C)Cc2ccc3c(c2)OCO3)Oc2ccc(NS(C)(=O)=O)cc2C1=O | 20
O=C(OCc1cccc(C(=O)c2ccccc2)c1)c1ccc(-c2nnc(-c3ccccc3)o2)cc1 | 5
C[C@@H]1CN([C@H](C)CO)C(=O)Cc2cc(NC(=O)Nc3ccccc3)ccc2O[C@@H]1CN(C)C(=O)Nc1ccc(F)cc1 | -8
CC(C)NC(=O)N(C)C[C@H]1Oc2c(NC(=O)Nc3ccc(C(F)(F)F)cc3)cccc2C(=O)N([C@@H](C)CO)C[C@@H]1C | 6
Cc1ccc(NC(=O)CN(c2cccc(F)c2)S(C)(=O)=O)cc1 | 21
Cc1ccc(CN(CC(=O)O)S(=O)(=O)c2c(C)cc(C)cc2C)cc1 | 26
Cc1noc(C)c1NC(=O)N(C)C[C@H]1OCCCC[C@@H](C)Oc2ccc(NC(=O)CCC(F)(F)F)cc2C(=O)N([C@H](C)CO)C[C@@H]1C | -15
CCCN(C)C[C@@H]1OCCCC[C@@H](C)Oc2ccc(NC(=O)Nc3ccc(C(F)(F)F)cc3)cc2C(=O)N([C@H](C)CO)C[C@@H]1C | 59
The list goes on.
SMILES | NOMO-1 viab
Cc1noc(C)c1NC(=O)Nc1ccc2c(c1)C(=O)N([C@H](C)CO)C[C@H](C)[C@@H](CN(C)C)O2 | -1
C[C@@H]1CN([C@H](C)CO)C(=O)c2cc(NS(=O)(=O)c3cccs3)ccc2O[C@@H]1CN(C)C(=O)Nc1ccc2c(c1)OCO2 | 0
C[C@@H]1CN([C@@H](C)CO)C(=O)c2cccc(NC(=O)C3CCCCC3)c2O[C@H]1CN(C)C(=O)Nc1ccc(F)cc1 | 13
COc1cc(C(=O)N(Cc2ccco2)c2ccc(O)cc2)cc(OC)c1OC | 0
C[C@H]1CN([C@@H](C)CO)C(=O)c2cc(NC(=O)NC3CCCCC3)ccc2O[C@H]1CN(C)C(=O)Nc1ccccc1 | 0
Cc1noc(C)c1NC(=O)Nc1ccc2c(c1)C(=O)N([C@H](C)CO)C[C@H](C)[C@H](CN(C)C(=O)NC(C)C)OCCCC[C@@H](C)O2 | 17
COc1ccc(NC(=O)CN(C2CCCCC2)S(=O)(=O)c2ccc(Cl)cc2)cc1 | 45
COc1ccc(S(=O)(=O)Nc2ccc3c(c2)C(=O)N([C@H](C)CO)C[C@@H](C)[C@@H](CN(C)C(=O)Nc2ccc(C(F)(F)F)cc2)O3)cc1 | 16
C[C@H]1CN([C@@H](C)CO)C(=O)c2cc(NC(=O)Nc3ccccc3)ccc2O[C@H]1CN(C)Cc1ccc(Cl)c(Cl)c1 | 100*
CC(=O)c1ccc(-n2c(CCC(=O)O)ccc2-c2cccs2)cc1 | 51
C[C@H](CO)N1C[C@H](C)[C@@H](CN(C)Cc2ccc(Oc3ccccc3)cc2)Oc2c(NC(=O)Nc3cccc4ccccc34)cccc2C1=O | ?
COc1ccc(-c2[nH]nc(SC)c2C#N)cc1 | 34
COc1ccc(NC(=O)Nc2ccc3c(c2)CC(=O)N([C@H](C)CO)C[C@H](C)[C@H](CN(C)C(=O)NC2CCCCC2)O3)cc1 | -3
C[C@@H]1CN([C@H](C)CO)C(=O)c2cccc(NS(C)(=O)=O)c2O[C@H]1CN(C)S(=O)(=O)c1ccc(F)cc1 | -10
CCn1c(SCC(=O)Nc2ccccc2C)nnc1-c1ccc(Br)cc1 | 25
CC1OC(O[C@H]2[C@@H](O)C[C@@]3(C)C(CC[C@]4(C)C3CC=C3[C@@H]5CC(C)(C)CC[C@]5(C(=O)OC5OC(C)C(OC6OCC(OC7OCC(O)C(OC8OCC(O)C(O)C8O)C7O)C(O)C6O)C(O)C5O)CC[C@]34C)[C@]2(C)CO)C(O)C(OC2OC(CO)C(O)C(O)C2O)C1O (some centres not stated) | 25
C[C@@H]1CN([C@H](C)CO)C(=O)c2cccc(NS(=O)(=O)c3cccs3)c2O[C@H]1CN(C)Cc1ccc(C(F)(F)F)cc1 | -15
C[C@H](CO)N1C[C@H](C)[C@H](CN(C)C(=O)Nc2cccc3ccccc23)Oc2ccc(NS(=O)(=O)c3ccccc3)cc2C1=O | 19
Cc1noc(C)c1NC(=O)N(C)C[C@H]1Oc2ccc(NS(=O)(=O)c3ccc(Cl)cc3)cc2CC(=O)N([C@@H](C)CO)C[C@@H]1C | 0
COc1ccc(S(=O)(=O)N(C)C[C@H]2Oc3ccc(NS(=O)(=O)c4ccccc4)cc3C(=O)N([C@@H](C)CO)C[C@@H]2C)cc1 | -10
Cc1noc(C)c1NC(=O)Nc1ccc2c(c1)C(=O)N([C@H](C)CO)C[C@H](C)[C@H](CN(C)S(=O)(=O)c1cn(C)cn1)OCCCC[C@@H](C)O2 | -8
COc1ccccc1Nc1nc(N)nc(-c2oc3ccccc3c2C)n1 | 68
C[C@@H]1CN([C@H](C)CO)C(=O)c2cccc(NS(=O)(=O)c3ccc(Cl)cc3)c2O[C@H]1CN(C)S(=O)(=O)c1ccc(Cl)cc1 | 16
O=C(O)C1C2CCC(C2)C1C(=O)c1ccccc1 (configuration not stated) | 1
CC(C)NC(=O)Nc1ccc2c(c1)CC(=O)N([C@H](C)CO)C[C@H](C)[C@H](CN(C)C(=O)Nc1ccc3c(c1)OCO3)O2 | -6
COc1cc(-c2nnc(SCC(=O)c3ccco3)n2C)cc(OC)c1OC | 4
O=C(Nc1ccccc1)Nc1ccc2nnsc2c1 | 83*
C[C@@H]1CN([C@@H](C)CO)C(=O)Cc2cc(NS(=O)(=O)c3ccc(Cl)cc3)ccc2O[C@@H]1CN(C)Cc1ccc2c(c1)OCO2 | 33
COc1ccc(NC(=O)CSc2nccc(C)n2)cc1 | 18
CC(=O)c1cccc(NC(=O)CN(Cc2ccccc2)S(C)(=O)=O)c1 | 16
c1ccc(-c2ccc(OCCCCSc3ncccn3)cc2)cc1 | 9
O=C(Nc1ccccc1[N+](=O)[O-])C1(c2ccccc2)CCN(S(=O)(=O)c2ccccc2)CC1 | -8
Cc1nc(-c2ccccc2O)n(S(=O)(=O)N(C)C)n1 | -4
C[C@H]1CN([C@@H](C)CO)C(=O)c2cccc(NC(=O)C3CCCCC3)c2O[C@H]1CN(C)C(=O)Nc1ccc(F)cc1 | 4
COc1ccc(/C=C/C(=O)c2cc(O)ccc2O)cc1 | 65
CCOC(=O)Cc1cc(-c2ccccc2O)nc2ccc3ccccc3c12 | 6
